# Six1-Eya2 inh: qHTS Assay for Inhibitors of the Six1/Eya2 Interaction | Homeobox protein SIX1 (Homo sapiens) + Protein phosphatase EYA2 (Homo sapiens), … | AlphaScreen GST-Six1/His-Eya2 binding, biochemical; hits give low values; control for the full effect not named in the record | activity change, % (no concentration beside the values) | 0.56% of 360,000 active; in the data active = activity change below about -65%; inconclusive = about -30% to -65%; inactive = above about -30%; also: % is scaled to controls: 0 for no effect and ±100 for the full control effect; compound concentration not given in the record
# Target sequence (O00167 whole entry, looked up): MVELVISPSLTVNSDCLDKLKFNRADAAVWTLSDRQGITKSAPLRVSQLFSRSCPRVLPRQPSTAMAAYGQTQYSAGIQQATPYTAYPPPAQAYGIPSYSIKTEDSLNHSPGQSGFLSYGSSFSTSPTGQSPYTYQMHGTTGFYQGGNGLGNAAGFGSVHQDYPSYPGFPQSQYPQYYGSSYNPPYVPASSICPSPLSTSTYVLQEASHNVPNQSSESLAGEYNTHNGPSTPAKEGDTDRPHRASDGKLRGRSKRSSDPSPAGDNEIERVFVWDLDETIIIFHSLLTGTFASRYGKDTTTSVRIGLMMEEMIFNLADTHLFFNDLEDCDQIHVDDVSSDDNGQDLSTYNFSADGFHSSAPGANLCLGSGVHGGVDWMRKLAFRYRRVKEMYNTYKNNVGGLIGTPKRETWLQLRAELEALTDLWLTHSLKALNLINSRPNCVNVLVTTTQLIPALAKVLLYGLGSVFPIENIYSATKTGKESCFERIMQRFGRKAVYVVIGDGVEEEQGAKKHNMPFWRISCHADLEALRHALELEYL
# Target sequence (Q15475 whole entry, looked up): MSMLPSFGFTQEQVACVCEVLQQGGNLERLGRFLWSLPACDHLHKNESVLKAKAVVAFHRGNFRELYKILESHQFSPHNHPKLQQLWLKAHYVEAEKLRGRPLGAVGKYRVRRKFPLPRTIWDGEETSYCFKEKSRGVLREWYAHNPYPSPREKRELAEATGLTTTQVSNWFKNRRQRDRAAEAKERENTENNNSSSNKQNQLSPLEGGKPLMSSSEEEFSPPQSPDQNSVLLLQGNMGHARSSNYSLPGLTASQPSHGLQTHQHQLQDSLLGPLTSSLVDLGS
#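 GST-Six1 + His-Eya2 (5X stock: 250/500 nM); Tris pH 8.0, 300 mM NaCl, 0.05% BSA, 0.02% Tween 20; GSH donor/Ni acceptor beads; 1 h 37 °C dark; AlphaScreen readout.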
# gsp antagonist: qHTS for Antagonists of gsp, the Etiologic Mutation Responsible for Fibrous Dysplasia/McCune-Albright Syndrome: qHTS. 0.4% of 340,000 active. Potency, µM (highest dose often 76.9 µM), inactives show at the highest dose activity change, negative = inhibition, actives largely listed as inhibitors. gsp-mutant cells, cAMP HTRF, 30 min; control for the full effect not named in the record. AID 624288, 2012; active = falling curve of any shape with a large fitted effect; inconclusive = falling curve, mostly with a smaller effect; inactive = flat or rising curve; cell line not stated here;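 also: intracellular cAMP measured with PDE inhibitor Ro 20-1724 present during compound exposure; potency is read from the fitted curve at half-maximal effect; % is scaled to controls: 0 for no effect and ±100 for the full control effect; nearly all actives have a fitted effect of over 65% in size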
#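 Cells in G418 medium, seeded 16-24 h, 37C; buffer exchange to DPBS + 1 mM CaCl2, 0.5 mM MgCl2, 0.05% BSA; cpds in DMSO + […] (300 uM stock), 30 min 37C; HTRF cAMP detection.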
# D2 agonist: Beta-Arrestin HTS for Positive Allosteric Modulators of the Human D2 Dopamine Receptor: Agonists; activation, % (test concentration not listed); 0.084% of 360,000 active; D(2) dopamine receptor (Homo sapiens), P14416; DiscoveRx PathHunter D2 beta-arrestin, luminescence, 90 min; 100% = 57 uM dopamine signal; in the data active = activation above about 40%; inconclusive = about 15% to 40%; inactive = below about 15%; also: compound concentration not given in the record; the text of the record calls up to 30% inactive
#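 DiscoveRx PathHunter D2 beta-arrestin cells (2,100/well) attached overnight, then compound-stimulated 90 min at 37 C in HBSS/10 mM HEPES/0.1% Tween-20 buffer; beta-galactosidase complementation read by luminescence after 1 h at ambient temperature. Dopamine 57 uM final (EC100) as control.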
# D2 PAM: Beta-Arrestin HTS for Positive Allosteric Modulators of the Human D2 Dopamine Receptor: Potentiators | potentiation, % (no concentration beside the values) | AID 624464, 2012 | DiscoveRx D2 beta-arrestin cells, luminescence, 90 min; 100% = 57 uM dopamine signal | D(2) dopamine receptor (Homo sapiens), P14416 | 0.23% of 360,000 active; active = potentiation of 50% or more; inconclusive = 30% to 50%; inactive = 30% or less;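 also: compound concentration not given in the record; tested on top of an EC20 dose of dopamine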
#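 D2 cells co-treated with compound plus 50 nM dopamine (EC20) for 90 min at 37 deg C to detect potentiation. Beta-arrestin recruitment was read as enzyme-fragment luminescence after 1 h at ambient temperature. Full response was set by 57 uM dopamine.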
# gsp agonist: qHTS for Agonist of gsp, the Etiologic Mutation Responsible for Fibrous Dysplasia/McCune-Albright Syndrome: qHTS; gsp mutant cells, cAMP HTRF, 30 min; control for the full effect not named in the record; Potency, µM (highest dose often 76.9 µM), for inactives: at the highest dose activation (cAMP increase), actives largely listed as activators; 0.13% of 340,000 active; AID 624287, 2012; active = well fitted activation curve with a large enough effect; inconclusive = small, poorly fitted or top-dose-only effect, or another doubt; inactive = no such curve, though single readings can be large or run the other way; cell line not stated here;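 also: phosphodiesterase inhibitor Ro 20-1724 added with compounds to block cAMP breakdown; potency is read from the fitted curve at half-maximal effect; nearly all actives have a fitted effect of over 60% in size; about a fifth of the inactives were tested at one dose only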
#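 Cells stably selected in G418 were plated at 2000/well, grown 16-24 hr, then given compounds in DMSO with the PDE inhibitor […] (300 uM solution added) for 30 min at 37C; cAMP was read by HTRF.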
# CtBP-E1A blk: qHTS Assay for Inhibitors of the CtBP/E1A Interaction. CtBP / adenovirus E1A interaction (AlphaScreen). AlphaScreen GST-E1A/His-CtBP binding, 1536-well; hits give low values; control for the full effect not named in the record. activity change, % (concentration not given with the values). 0.49% of 340,000 active; in the data active means activity change below about -65%; inconclusive means about -30% to -65%; inactive means above about -30%; also: % is scaled to controls: 0 for no effect and ±100 for the full control effect
#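 Homogeneous bead-based format: GST-tagged E1A captured on glutathione donor beads, His-tagged CtBP on nickel acceptor beads; compounds precede bead addition by 2 h at 37 °C.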
# Active calls of the source: *; u = inconclusive; x = no result given; [ ] = dose if it differs, or a comment.
no.	SMILES	Six1-Eya2 inh	gsp antagonist	D2 agonist	D2 PAM	gsp agonist	CtBP-E1A blk
1	C=CCON/C(CCC)=C1\C(=O)C(C(=O)OC)C(C)(C)CC1=NC (centres undefined)	14	0%	1.8	-5	-7%[15.4 µM]	x
2	CCOc1cc(C(=O)Nc2ccc(S(=O)(=O)Nc3cc(C)on3)cc2)cc(OCC)c1OCC	0	-20%	1.0	20	-4%	-8
3	CCOc1ccc(OCCC(=O)OCC(=O)NC2CCCCC2)cc1	7	0%	1.1	-4	-41%[inhibitor]	-2
4	COCC(C)n1c(SCC(=O)c2cc(C)n(C)c2C)nc2ccccc2c1=O (centres undefined)	-15	-2%	-1.3	-32	1%[15.4 µM]	5
5	CC(C)c1nc2cc(C(=O)NC(c3cccnc3)C(F)(F)F)ccc2o1 (centres undefined)	1	-1%	8.5	-3	28%	1
6	CCN1C(=O)CC(c2ccccc2)CC1=O	-12	9%	-2.9	-6	x	-4
7	C/C(=C\c1ccccc1)CN1CCC(C(=O)N2CCCCC2)CC1	6	7%	-0.8	-20	-16%	-1
8	CCCN(CCC)CCCNC(=O)c1cn(CCOC)c(=O)c2c1c1ccccc1n2C	4	-11%	-1.2	-5	-50%[inhibitor]	9
9	Cc1nc(N(C)Cc2ccccc2)c2c(C)c(C)sc2n1	-2	-8%	-2.6	-9	-5%[15.4 µM]	-2
10	CCc1nnc2sc(-c3cc(-c4ccccc4)nc4ccccc34)nn12	2	-11%	-0.6	-3	0%	3
11	O=C(NCc1ccncc1)Nc1ccc(Cl)cc1Cl	1	10%	-1.9	-32	-1%	3
12	Cc1cccc(NS(=O)(=O)c2cccc(C(=O)NCC(c3ccco3)N(C)C)c2)c1 (centres undefined)	0	-10%	-2.6	-36	8%	2
13	CCN(CC)C(=O)CSc1nnc(-c2ccc(O)cc2)n1CC1CCCO1 (centres undefined)	-1	10%	-2.9	-12	-6%	-3
14	CCOc1ccc(NC(=O)C(C)N2C(=O)c3ccccc3S2(=O)=O)cc1 (centres undefined)	-10	-12%	-1.2	3	-5%[15.4 µM]	5
15	CCOC(=O)/C(=C\c1ccc([N+](=O)[O-])o1)NC(=O)c1ccccc1	-3	-2%	4.4	15	7%	10
16	Cc1ccc(C(=O)Nc2cccc(C(=O)NCc3ccccc3)c2)cc1	-3	-12%	-4.3	-30	6%	0
17	CC(=O)c1sc2nc(-c3ccco3)ccc2c1N	-27	-7%	5.4	0	u	0
18	COc1ccc(-c2cc(C(=O)Nc3ccccc3SC)no2)cc1OC	1	3%	0.5	-7	-28%	1
19	COc1ccc(NC(=O)CC(NC(C)c2ccccc2)C(=O)O)cc1 (centres undefined)	4	11%	5.8	-6	-13%	x
20	O=C1[C@@H](Oc2ccccc2)[C@@H](c2ccccc2)N1c1ccccc1	1	-3%	1.6	x	x	6
21	O=C(CSc1ccsc1[N+](=O)[O-])Nc1cccc(F)c1	-19	-16%	-0.6	-5	-42%[inhibitor]	-4
22	CCCN1CCc2c(sc(NC(=S)NC(=O)c3ccccc3)c2C#N)C1	-13	-11%	14	17	-17%	-8
23	O=C(CSc1ccccn1)Nc1cccc2ccccc12	3	-28%	1.2	11	17%[15.4 µM]	-3
24	COC(CNC(=O)c1ccc2c(c1)nc(C)n2-c1cccc(C)c1)OC	8	12%	-3.2	-1	-28%	2
25	NC(=O)C1CCCN(CC(=O)N2CCN(c3ccccc3)CC2)C1 (centres undefined)	-3	5%	-2.9	-10	-29%[15.4 µM]	6
26	CCOC(=O)N1CCN(C(=O)Nc2sc3nc4n(c(=O)c3c2C)CCC(C)CC4)CC1 (centres undefined)	-14	-6%	5.9	-5	-3%	0
27	Cc1ccc(N2CC(C(=O)N/N=C/c3c(F)cccc3Cl)CC2=O)cc1 (centres undefined)	-6	-20%	0.5	-12	-10%	-1
28	O=C(C[C@H]1C/C=C\CC[C@@H](Cc2ccc(F)cc2)C(=O)O[C@@H](c2ccccc2)CNC1=O)N[C@@H](CO)Cc1ccccc1	7	1%	-2.1	-32	x	2
29	COc1ccc(/C=C2/C(=O)N(c3c(F)c(F)c(F)c(F)c3F)N=C2C)cc1	-3	-2%	3.0	-3	3%	x
30	Cc1nnc(NC(=O)CCCOc2ccccc2)s1	-1	1%	-2.3	-1	-13%	2
31	CCn1ncc2c(OCc3ccc(C#N)cc3)cc(C)nc21	11	-4%	-0.3	-13	-3%	13
32	O=C(COC(=O)CSc1ccc([N+](=O)[O-])cc1)NCc1cccs1	-3	4%	-5.6	3	8%[15.4 µM]	-1
33	CCCc1nc2c(s1)CCc1onc(-c3ccc(Br)cc3)c1-2	16	-2%	-2.5	-11	-18%	-2
34	COc1ccc(C(=O)NCc2ccccc2OC)c(OC)c1	2	-6%	-3.0	-7	7%	-2
35	CC(=O)c1ccc(N2CCN(C(=S)NCCCN(C)C)CC2)cc1	-2	0%	4.5	-2	-9%	9
36	COc1ccccc1C(=O)N1CCN(C(=O)[C@H]2O[C@@H](n3ccc(N)nc3=O)[C@H](O)[C@@H]2O)CC1	6	x	-4.3	-6	x	6
37	COc1ccc(Cl)cc1NC(=O)CN(C)CC(=O)NCc1ccc(F)cc1	5	-2%	3.4	-4	23%	1
38	CC(Sc1nc(N2CCCCC2)c2c(c1C#N)CCCC2)C(=O)O (centres undefined)	-4	u	-2.4	2	u	-2
39	O=C(Oc1ccccc1)c1ccc2c(c1)C(=O)N(Cc1ccncc1)C2=O	-2	-32%	-2.4	-4	-20%[15.4 µM]	-3
40	CCN1CCCc2cc(CN(CCN3CCOCC3)C(=S)Nc3ccccc3OC)ccc21	u	-8%	-2.0	-14	-4%	x

# From compound 39 to 40, as listed above:
no.	SMILES	Six1-Eya2 inh	gsp antagonist	D2 agonist	D2 PAM	gsp agonist	CtBP-E1A blk
39	O=C(Oc1ccccc1)c1ccc2c(c1)C(=O)N(Cc1ccncc1)C2=O	-2	-32%	-2.4	-4	-20%[15.4 µM]	-3
40	CCN1CCCc2cc(CN(CCN3CCOCC3)C(=S)Nc3ccccc3OC)ccc21	u	-8%	-2.0	-14	-4%	x

# More entries
no.	SMILES	Six1-Eya2 inh	gsp antagonist	D2 agonist	D2 PAM	gsp agonist	CtBP-E1A blk
41	c1ccc(COc2cccc(CNCc3cccs3)c2)cc1	53	10%	-1.0	-19	-18%	18
42	COc1ccc(NCCNc2ccc(OC)cc2)cc1	-19	3%	0.3	26	0%	-27
43	COCCn1c(SCc2ccc(C(=O)OC)o2)nc2ccccc2c1=O	-4	-3%	-2.7	-15	-48%[inhibitor]	3
44	CC(C)=CC(=O)N1CC[C@@H](N2CCN(c3ccccc3F)CC2)[C@H](O)C1	7	-8%	43*	6	13%[15.4 µM]	13
45	CCn1c(SCc2nc3ccccc3nc2C)nnc1-c1cccs1	-8	-6%	0.0	-4	-6%	3
46	CCCn1c(CCNC(=O)c2cccs2)nc2ccccc21	4	-1%	3.3	-10	5%	-1
47	O=C(Cc1cccc2ccccc12)Nc1ccccc1C(=O)O	-3	u	-0.5	-6	-29%	-9
48	O=C(NN1C(=O)c2ccccc2NC1c1ccoc1)c1ccc([N+](=O)[O-])cc1 (centres undefined)	6	-16%	7.6	-5	3%	-8
49	CCc1ccc(NC(=O)CCCN2C(=S)NC(C)(C)CC2C)cc1 (centres undefined)	1	4%	-5.1	-10	9%[15.4 µM]	1
50	CC(C)c1ccc(NS(=O)(=O)c2ccc3[nH]cc(C(=O)N4CCC(C(N)=O)CC4)c(=O)c3c2)cc1	-1	5%	0.3	1	20%	0
51	O=C(C[n+]1ccccc1)N/N=C/c1ccccc1F	1	-10%	-9.1	-7	8%[15.4 µM]	u
52	CC(=O)c1cccc(NC(=S)NC(=O)c2ccccc2Cl)c1	-11	8%	-1.7	6	11%	-6
53	CC(C(=O)NC1CCCC1)N1CCN(S(=O)(=O)c2ccc(C(C)(C)C)cc2)CC1 (centres undefined)	1	-14%	1.3	-10	1%	-10
54	Cc1ccc(C)c(N2N=C(C(=O)Nc3cccnc3)CCC2=O)c1	6	-2%	-1.7	1	u	x
55	COc1cccc(NC(=O)CSc2ncc(S(=O)(=O)c3ccccc3)c(=O)[nH]2)c1	2	-1%	1.7	1	-3%	-3
56	Cc1c(CN2CCc3c([nH]c4ccccc34)C2C2CCCCC2)cnn1C (centres undefined)	-10	-10%	-0.2	-18	-18%[15.4 µM]	-17
57	CCOC(=O)CSc1nnc(CNC(=O)c2ccc(OC)cc2OC)n1C	2	8%	-0.1	-4	1%	1
58	CCN(CC(=O)Nc1c(F)cccc1F)C(=O)c1ccc(OCc2c(C)noc2C)cc1	6	4%	4.9	-3	22%	2
59	CCc1nc2c(OCCC3CCCCC3)cccn2c1N(C)C(=O)c1ccccc1F	-24	x	-2.8	-5	x	u
60	COC(=O)CNC(=O)C(C)NC(=O)CNC(=O)OCc1ccccc1 (centres undefined)	-2	7%	-2.4	-16	-13%	-1
61	CC(=O)Nc1ccc(S(=O)(=O)NCc2nnnn2-c2ccc(Cl)cc2)cc1	10	3%	-4.9	-9	-24%	4
62	COC(=O)CN(c1ccc(OC)cc1)S(=O)(=O)c1ccc(OC)c(OC)c1	4	12%	-2.4	-7	-32%[inhibitor]	3
63	CCOC(=O)[C@H]1[C@H]2COc3ccccc3[C@@H]2N2C(=O)c3cc(F)c(F)cc3NC(=O)[C@@]12C	1	-15%	-2.5	-6	-1%	x
64	COc1ccc(C2C3=C(CCCC3=O)Nc3c(-c4ccccc4)c(C)nn32)cc1 (centres undefined)	15	-2%	-0.9	-10	-48%[inhibitor]	-26
65	COc1ccccc1NCC(=O)n1nc(C)cc1C	-15	-1%	2.7	10	1%[15.4 µM]	0
66	Cn1c(N)c(C(=O)COC(=O)c2cccc(S(=O)(=O)N3CCOCC3)c2)c(=O)n(C)c1=O	-14	-1%	0.9	-15	u	u
67	N#Cc1nc(COc2ccc(Br)cc2)oc1N1CCCCCC1	u	-19%	-2.5	1	-5%	u
68	Cc1ccccc1-n1nc2c(c1NC(=O)c1ccc(Br)o1)CSC2	2	-11%	-2.1	4	1%	2
69	Cc1oc(-c2ccccc2)nc1C(=O)OCC(=O)NCc1ccccc1	7	1%	-1.8	-9	5%	x
70	CC(C)CN(CC(C)C)CC(O)COc1ccccc1Br (centres undefined)	17	18%	-3.6	-31	7%	17
71	COc1cc(NC(=O)CCc2ccccc2)nc(OC)n1	1	-5%	-2.1	-8	21%	3
72	COc1ccccc1N(C)S(=O)(=O)c1ccc(C(=O)OCC(=O)NCC(F)(F)F)cc1	-2	-12%	-1.9	-5	-7%[15.4 µM]	3

# Assay outcomes (PubChem)
